Screens (PubChem BioAssay)
Ecoli rRNA inh: reduced GFP signal of wild-type E. coli, primary screen, bacterial rRNA inhibitor project, GFP/RFP fluorescence, OD600, single point; 350,000 tested, 1.6% active; GFP signal change (wild-type ribosome), % (no concentration beside the values); AID 720706, 2013; E. coli WT GFP vs humanized-ribosome RFP mutants, 24 h; hits give low values; DMSO median 0, no signal -100;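 active = significant combined selectivity score with lowered wild-type GFP, culture density cut under 30%, mutant RFP and density less affected; inactive = any of these conditions unmet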; note: one replicate is shown; some compounds called inactive have numbers as strong as hits
UCH37 DUB inh: inhibitors of human UCH37 deubiquitinase, primary screen, biochemical, Ub-AMC cleavage, fluorescence; Ubiquitin carboxyl-terminal hydrolase isozyme L5 (Homo sapiens), Q9Y5K5; purified proteasome/UCH37; inhibition, % (no concentration beside the values); 330,000 tested, 0.33% active; AID 588478, 2011;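 active = mean of two replicates above 20%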;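 note: 0% = compound-free wells with enzyme and 100% = wells lacking proteasome; stock transfer was 100 nL into about 20 µL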
Target sequence (Q9Y5K5 whole entry, looked up): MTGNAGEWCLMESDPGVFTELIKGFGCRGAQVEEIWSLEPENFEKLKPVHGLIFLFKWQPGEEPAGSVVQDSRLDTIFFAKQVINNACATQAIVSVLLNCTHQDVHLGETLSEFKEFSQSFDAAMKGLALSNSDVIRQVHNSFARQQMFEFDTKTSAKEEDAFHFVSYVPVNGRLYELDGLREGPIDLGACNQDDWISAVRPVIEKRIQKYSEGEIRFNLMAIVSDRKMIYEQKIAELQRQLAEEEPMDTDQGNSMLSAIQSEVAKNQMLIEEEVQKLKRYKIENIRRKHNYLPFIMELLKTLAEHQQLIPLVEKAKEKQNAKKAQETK
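assay system = human UCH37 enzyme supplied as purified proteasome complex | amount = proteasome at 0.15 nM in the dispensed enzyme solution | schedule = 30 min compound-proteasome preincubation then 25 min substrate reaction, room temperature | measured by = fluorescence, ex 355 nm, em 460 nm | benchmarks = no-proteasome wells (full inhibition) and compound-free wells (no inhibition)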
Ecoli growth: E. coli growth inhibition, primary screen, OD600 | 330,000 tested, 0.21% active | Escherichia coli growth, 23 h; hits give low values | OD600 absorbance (no concentration beside the values);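 active = OD600 absorbance below the run mean of sample wells minus 3.6 SD, in any replicate, cut at about 0.56 in these data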;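 note: stock transfer was 300 nL into about 60 µL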
HNF4A DNA FP: change in binding of human HNF4A to DNA, primary screen, biochemical, fluorescence polarization, FITC-DNA. AID 1224865, 2016. Hepatocyte nuclear factor 4-alpha (Homo sapiens), P41235. 360,000 tested, 0.3% active. 1 h. activity change, % at 10 µM; in the data active = activity change above about 30%, passing the limit was not always enough;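 note: controls were the assay level and a saturating level of protein; the project sought stronger binding though the title names inhibitors; some compounds called inactive have numbers as strong as hits; positive values seem to mean higher polarization but the record does not say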
B2AR ag: beta2AR agonists driving receptor internalization, primary screen, cell-based, FAP fluorogen, flow cytometry; 340,000 tested, 0.43% active; response, % (no concentration beside the values); Beta-2 adrenergic receptor (Homo sapiens), P07550; Am2.2-beta2AR cells; reference of the scale not given here;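 active = response above a set limit, near 3 SD of response in nonfluorescent compounds, cut at about 42% in these data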;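 note: stock transfer was 100 nL into about 11 µL; a reference agonist was the positive control; negative values mostly stem from fluorescent compounds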
ALR inh: inhibitors of human ALR sulfhydryl oxidase, primary screen, biochemical, H2O2 detection, HRP-luminol luminescence, single point. FAD-linked sulfhydryl oxidase ALR (Homo sapiens), P55789. purified ALR, DTT oxidation. inhibition, % (test concentration not listed). 290,000 tested, 3.8% active. AID 485317, 2010;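 active = mean and each replicate at 75% or more; inconclusive = only one of the two met; inactive = neither met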;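 note: stock transfer was 7.5 nL into about 7.5 µL; 0% = neutral wells and 100% = wells with inactivated enzyme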
Target sequence (P55789 whole entry, looked up): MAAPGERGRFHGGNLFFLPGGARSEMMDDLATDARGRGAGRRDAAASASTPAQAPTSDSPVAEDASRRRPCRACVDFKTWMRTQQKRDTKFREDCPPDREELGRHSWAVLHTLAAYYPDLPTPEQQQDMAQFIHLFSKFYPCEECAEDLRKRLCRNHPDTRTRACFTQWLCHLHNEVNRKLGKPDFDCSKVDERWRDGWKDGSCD
FGF22 binding: binders of human FGF22 protein, primary screen, FGF22 synaptogenesis inhibitor project, biophysical, thermal shift, single point; AID 651658, 2012; Fibroblast growth factor 22 (Homo sapiens), Q9HCT0; calls only at 9.99 µM; 340,000 tested, 1.5% active; recombinant FGF22 thermal shift, SYPRO orange fluorescence; percent of sucrose octasulfate shift, DMSO zero;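 active = melting point raised past a set limit in the mean and every replicate; inconclusive = no clear call; three in four hits are not shown here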
Target sequence (Q9HCT0 whole entry, looked up): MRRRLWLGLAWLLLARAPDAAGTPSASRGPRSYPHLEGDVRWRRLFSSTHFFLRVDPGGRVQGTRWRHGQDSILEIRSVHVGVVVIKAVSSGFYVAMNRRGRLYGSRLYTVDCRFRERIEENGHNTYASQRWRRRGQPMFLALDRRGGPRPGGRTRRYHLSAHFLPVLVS
Ecoli rRNA inh OD600: also measured in Ecoli rRNA inh; calls as there; OD600 change, %; measured here: OD600 growth;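 optical density of the mix in the first replicate; 0 = DMSO median and -100 = no signal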
Ecoli rRNA inh RFP: second read-out of Ecoli rRNA inh, no call of its own (marks repeat the call); RFP signal change, %; measured here: RFP humanized mutant strains;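 first replicate; 0 = DMSO median and -100 = no signal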
* = called active by the depositor; i = inactive; ? = inconclusive; · = not tested or not shown. Not all compounds are listed; rates above refer to the full screens.

entry	smiles	Ecoli rRNA inh	Ecoli rRNA inh OD600	Ecoli rRNA inh RFP	UCH37 DUB inh	Ecoli growth	HNF4A DNA FP	B2AR ag	ALR inh	FGF22 binding
1	CCC(=O)N1CCN(c2ccc(NC(=O)c3cccs3)cc2)CC1	·	·	·	3.5	0.62	0.7	-7	46	·
2	CCCCCCN1C[C@H](O)[C@@H](n2cc(COC(=O)c3ccccc3)nn2)C[C@@H]1c1ccc(Cl)cc1	6	-4	-0.5	·	·	2.4	·	·	i
3	CC1CCC2(CC1)NC(=O)N(NC(=O)c1ccc(OC(C)C)cc1)C2=O (configuration not stated)	4	10	0.0	-1.3	0.69	1.9	15	·	i
4	Cc1ccc(CCNC(=O)Cn2ncc3c([nH]c4ccccc43)c2=O)cc1	10	10	-1.3	1.5	0.66	-1.4	-3	1	i
5	CC1C(c2ccccc2)N(C)C(c2ccccc2)CC1(O)c1ccc(F)cc1 (configuration not stated)	-47	-73	-14	-0.3	0.68	2.2	8	-1	i
6	Cc1c(Cl)cccc1NC(=O)CCC(=O)NNC(=O)c1ccccc1	·	·	·	7.7	0.71	-3.2	-3	-24	·
7	COC(=O)CNc1nc(-c2cccnc2)nc2ccccc12	·	·	·	1.3	0.74	26	-7	-7	·
8	COc1cc(=O)[nH]c(SCC(=O)Nc2nc3c(s2)CCCC3)n1	-2	-22	-5.5	6.0	0.65	-1.1	-3	·	i
9	CCOc1ccccc1NC(=O)CN1c2cccc3cccc(c23)S1(=O)=O	-11	-11	0.8	-74	0.67	1.3	5	-20	i
10	CCN1CCN(CC(=O)Nc2cc(C)on2)CC1	25	19	0.7	0.0	0.67	-1.9	9	-7	i
11	CCN(CC)c1ccc(C=Nc2cccc(S(=O)(=O)N3CCOCC3)c2)c(O)c1	10	11	-0.6	7.7	0.72	3.7	8	·	i
12	CNC(=S)N=Nc1c(O)[nH]c2ccc(C(C)C)cc12	-22	-33	-19	6.7	0.69	0.0	-11	-7	i
13	O=C(Cn1ncc(Cl)c(Cl)c1=O)Nc1ccc2c(c1)OCO2	2	17	-1.4	1.2	0.6	-13	12	0	i
14	Cc1ccccc1OCc1nc2ccccc2c(=O)n1/N=C/c1cccc([N+](=O)[O-])c1	·	·	·	·	·	2.6	-8	1	·
15	CN1C(=S)SC(C)(C)C1NO (configuration not stated)	·	·	·	0.1	0.71	-3.8	-1	0	·

Results in sequence from the entries so far:
B2AR ag, compounds 2 to 11, in order: ·, 15, -3, 8, -3, -7, -3, 5, 9, 8

(cont.)
entry	smiles	Ecoli rRNA inh	Ecoli rRNA inh OD600	Ecoli rRNA inh RFP	UCH37 DUB inh	Ecoli growth	HNF4A DNA FP	B2AR ag	ALR inh	FGF22 binding
16	O=C(CCS(=O)(=O)c1ccccc1)N1CCN(c2ccccc2)CC1	1	5	-0.3	3.8	0.67	-1.2	-8	99*	i
17	O=S(=O)(c1ccc(=S)[nH]c1)N1CCOCC1	10	11	-0.8	6.0	0.69	-2.2	5	7	i
18	CS(=O)(=O)N(CC(=O)N1CCOCC1)c1ccc2c(c1)OCO2	·	·	·	-3.4	0.78	-4.3	1	-8	·
19	CCC(=O)c1cn([C@@H](CCC(OC)OC)CC(=O)OC(C)(C)C)cc1CC	-2	-4	-6.8	1.0	·	2.1	-9	-7	i
20	Cc1cc(C)n(CC(O)Cn2cnc3c2c(=O)n(C)c(=O)n3C)n1 (configuration not stated)	·	·	·	0.4	0.72	-0.2	-2	-3	·
21	Cc1cc(NC(=O)Cn2cnc3sccc3c2=O)no1	10	15	2.8	-0.7	0.65	1.7	8	-8	i
22	c1ccc(COCC2CCNCC2)cc1	9	16	-0.4	4.5	0.71	-0.2	1	·	i
23	CCCN(CCC)S(=O)(=O)c1ccc(C(=O)Nc2cccnc2)cc1	-9	-2	7.2	0.6	0.68	0.3	0	4	i
24	COCCCNCCCOc1ccc(C(C)(C)c2ccccc2)cc1	·	·	·	4.9	0.67	-0.9	9	-25	·
25	COc1ccc(CCNC(=O)/C=C/c2cc(OC)c(OC)c(OC)c2)cc1OC	-3	-5	-1.9	-1.8	0.7	0.9	0	-2	i
26	O=C1CC(Nc2cc(=O)[nH]c(=O)[nH]2)C(=O)N1c1ccccc1Cl (configuration not stated)	8	19	-3.0	2.2	0.72	-3.5	-10	0	·
27	O=C(CSCc1ccc(Cl)cc1Cl)Nc1ccccc1C(=O)Nc1ccc(C(=O)O)cc1	0	5	0.3	5.3	0.65	-0.1	13	97*	i
28	CCCCOc1ccc(C(=O)Nn2cnnc2)cc1	·	·	·	3.4	0.64	-0.1	-5	-1	·
29	C/C(Cl)=C/Cn1c(SC(C)C)nc2c1c(=O)[nH]c(=O)n2C	·	·	·	6.2	0.7	-1.2	10	8	·
30	COc1ccc(NC(=O)C2CCCC2)cn1	11	5	-2.3	4.1	0.68	-0.4	0	·	i
31	CCOc1ccccc1N1CCN(C(=O)c2ccccc2)CC1	·	·	·	4.3	0.73	1.2	-2	32	·
32	O=C(CSc1n[nH]c(-c2ccccn2)n1)Nc1ccccc1	-32	-42	-8.9	-1.0	0.66	0.8	1	-2	i
33	COc1ccccc1NC(=S)N1CCN(c2ccc(F)cc2)CC1	2	-4	-2.1	4.6	0.68	-0.4	-5	15	i
34	COCCn1c(=S)[nH]c2cc(C(=O)N3CCN(c4ccccc4OC)CC3)ccc2c1=O	·	·	·	7.8	0.69	1.1	9	·	·
35	Cc1cc(C(=O)N(C)CC(=O)Nc2ccc(F)c(F)c2F)no1	0	0	-1.1	6.1	0.71	-1.5	4	-10	i
36	C/C(=C/C#N)Nc1ccc(C)cc1	3	2	1.6	2.7	0.69	3.7	9	-6	i
37	CN(CC(=O)Nc1c(Cl)cccc1Cl)C(=O)C1CC(=O)N(Cc2ccccc2)C1 (configuration not stated)	3	9	-2.4	1.7	0.65	1.1	-3	-4	i
38	O=[N+]([O-])c1cc(-c2nc3nc4ccccc4nc3n2CCc2ccccc2)cc([N+](=O)[O-])c1	·	·	·	-13	0.68	-1.6	-10	-4	·
39	NC(=O)Cn1nc([N+](=O)[O-])nc1Oc1ccccc1C(=O)N1CCOCC1	7	1	-2.2	-0.7	0.66	3.0	3	-9	i
40	COc1ccc(Oc2coc3c(CN(C)C)c(O)ccc3c2=O)cc1	·	·	·	-111	0.69	-1.8	-2	·	·
41	COc1ccc(CCNC(=O)CS(=O)(=O)Cc2nc(-c3ccccc3Cl)oc2C)cc1OC	-3	-5	-0.6	0.9	0.67	3.1	-2	66	i
42	CCOC(=O)N1CCN(C(=O)c2c(-c3ccccc3)noc2C)CC1	-4	-8	-6.9	2.8	0.77	-2.9	12	?	i
43	CCC(=O)Nc1ccc(C(=O)NNC(=O)c2cc([N+](=O)[O-])cc([N+](=O)[O-])c2)cc1	15	12	0.5	6.1	0.72	-2.9	-6	4	i
44	COc1cccc(N/C(SCc2ccccc2C)=C(/C#N)C(=O)NCc2cccs2)c1	·	·	·	10	0.73	0.7	11	-9	·
45	COCCNC(=O)C(=O)NNS(=O)(=O)c1ccc(Cl)cc1	17	9	-1.4	2.8	0.68	0.4	3	40	i
46	Cc1c[n+](CC(=O)c2ccccc2)cs1	8	13	0.5	-0.8	0.61	-2.3	-3	54	i
47	COc1ccc(CC(=O)N(C)Cc2ccc(C(C)(C)C)cc2)cc1S(=O)(=O)N1CCOCC1	0	-3	-0.2	4.7	0.73	-2.2	-8	2	i
48	COc1ccc(NC(=O)COc2ccc(/C=N/NC(=O)c3cccnc3)cc2OC)cc1	-1	11	6.5	·	·	2.7	17	1	i
49	CCC(=O)c1ccc(OCC(=O)N(C)CC(=O)Nc2cccc(F)c2)cc1	-3	-6	2.5	6.7	0.65	6.3	-18	-5	i
50	Cc1nn(Cc2nnc(SCC(=O)Nc3ccc(Cl)cc3)n2C)c(C)c1[N+](=O)[O-]	2	-2	0.0	2.4	0.63	0.1	4	·	i
51	O=C(CC1NCCNC1=O)Nc1cc(Cl)cc(Cl)c1 (configuration not stated)	0	6	3.1	-0.8	0.66	-2.3	1	-3	i
52	COc1ccc(-c2csc(C3=C(O)CN(CCCN4CCCC4=O)C3=N)n2)cc1OC	0	10	0.3	4.0	0.67	2.7	6	96*	i
53	CC(C)COc1ccc(C(=O)Nc2ccc(SC(F)F)cc2)cc1	-4	12	-2.7	0.7	0.68	-2.7	2	-4	i
54	Cc1nn(Cc2ccccc2)c(C)c1NS(=O)(=O)c1ccccc1	-7	-10	-2.6	-1.0	0.67	-3.3	7	-18	i
55	C=CCn1c(-c2ccccc2)nc(=S)c2c1CCCC2	-9	2	2.4	4.0	0.67	-1.8	2	-2	i

A section taken from the entries so far, for reference:
entry	smiles	Ecoli rRNA inh	Ecoli rRNA inh OD600	Ecoli rRNA inh RFP	UCH37 DUB inh	Ecoli growth	HNF4A DNA FP	B2AR ag	ALR inh	FGF22 binding
1	CCC(=O)N1CCN(c2ccc(NC(=O)c3cccs3)cc2)CC1	·	·	·	3.5	0.62	0.7	-7	46	·
2	CCCCCCN1C[C@H](O)[C@@H](n2cc(COC(=O)c3ccccc3)nn2)C[C@@H]1c1ccc(Cl)cc1	6	-4	-0.5	·	·	2.4	·	·	i
3	CC1CCC2(CC1)NC(=O)N(NC(=O)c1ccc(OC(C)C)cc1)C2=O (configuration not stated)	4	10	0.0	-1.3	0.69	1.9	15	·	i
4	Cc1ccc(CCNC(=O)Cn2ncc3c([nH]c4ccccc43)c2=O)cc1	10	10	-1.3	1.5	0.66	-1.4	-3	1	i
5	CC1C(c2ccccc2)N(C)C(c2ccccc2)CC1(O)c1ccc(F)cc1 (configuration not stated)	-47	-73	-14	-0.3	0.68	2.2	8	-1	i
